Tg IFNy HTS – T. gondii growth inhibition with IFN-gamma, primary screen, cell-based; Toxoplasma gondii growth in IFN-gamma-treated host cells; stronger effect = lower value; reference of the scale not given here; activity change, negative = inhibition, %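 (about 20 µM by stock and volumes)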; actives 3.8% (n = 69,000); AID 1259416, 2018;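 active = below -70%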;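 note: host cells are HeLa cells infected with Toxoplasma gondii; parasite growth read as luciferase light; one replicate is shown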
Active calls of the source: *; i = inactive; & = joins results of further samples; ! = a repeat was not active. Not all compounds are listed. The share of hits here may be higher or lower than overall.

SMILES | Tg IFNy HTS
CCCc1nc(C)cc(N2C[C@H]3CC[C@@H](C2)N3)n1 | -22
CC(C)[C@@H](CN1CC[C@@](C)(c2cccc(O)c2)[C@@H](C)C1)NC(=O)[C@H]1Cc2ccc(O)cc2CN1 | 10
CCNC(=O)C(C)NC1CCC2(CCNCC2)CC1 (centres undefined) | 2
CCCC1(CCC)C(=O)NC(=Nc2ccc(OC)cc2)NC1=O | 2
O=C(NCc1cccs1)c1cc2cccnc2n(Cc2ccccc2)c1=O | -62
Cc1ccc(C[N+](C)(C)C)o1 | 21&12
O=C(Nc1ccc(F)c(Cl)c1)c1cc2cccnc2n(Cc2ccccc2)c1=O | 103
CC(Cc1ccccc1)NCC(=O)Nc1cc(N(C)C)nc2ccccc12 (centres undefined) | 15
COC(=O)[C@@H](N)CCCN=C(N)N[N+](=O)[O-] | 21
C=CCN1CC[C@]2(C)c3cc(O)ccc3CC1[C@@H]2C | 10
CCN1CCOCC2(CCCN(C(=O)c3cccnc3)C2)C1 (centres undefined) | 5
O=C1Nc2ccccc2C2(CCN(CCc3ccc(C(F)(F)F)cc3)CC2)O1 | 11
CCC(CO)(C(=O)OC1CC2CCC(C1)[N+]2(C)C)c1ccccc1 (centres undefined) | 6
CN1C[C@H](COCc2ccccn2)[C@]2(CCN(C(=O)N(C)C)C2)C1 | 2
CN1CC[C@@]23CCCC[C@@H]2[C@@H]1Cc1ccc(O)cc13 | 14
Cc1ccc(CN2CC[C@H]3[C@@H]2CCN3C(=O)Cc2ccccc2)o1 | -3
CN(CCCC1CCCO1)C1CCNCC1 (centres undefined) | 1
COc1ccccc1CN1[C@@H](CO)[C@@H](c2ccccc2)C12CN(C(=O)Cc1ccccc1)C2 | 9
Cc1ccc(OC[C@H]2CO[C@H]3CN(Cc4sccc4C)C[C@@H]23)cn1 | -48
Cc1nc(N)sc1CCN | 13&14
COc1ccc(NC(=O)c2cc3cccnc3n(Cc3ccc(F)cc3)c2=O)c(OC)c1 | -6
CC(Cn1cncn1)NCc1n[nH]c2c1CCCCC2 (centres undefined) | -41
O=C(Nc1ccccc1)c1c(O)c2cccnc2n(Cc2ccccc2)c1=O | -29
Cc1ccc2c(n1)N(CC1CC1)CCN(c1ncccn1)C2 | 6
c1ccc(OCC2CC3OCCN(Cc4cccs4)C3C2)nc1 (centres undefined) | -2
COc1ncccc1CN1CCN2CCN(C)CC2C1 (centres undefined) | 0
CN1CCC2=C(C1)c1ccccc1Cc1ccccc12 | 12
O=C1c2ccccc2C(=O)c2ccccc21 | 3
COc1ccc(NC(C)=O)cc1NC(=O)c1cc2cccnc2n(Cc2ccc(F)cc2)c1=O | 11
CO[C@@H]1CCN(C(=O)c2cccc(C)n2)[C@H]2CN(CC3CC3)C[C@@H]12 | -5
Cc1cnc(C(=O)N2C[C@H]3CNC[C@H]3C2)cn1 | -9
CO[C@H]1CCN(Cc2ccoc2)[C@H]2CN(Cc3ccncc3)C[C@@H]12 | -52
c1ccc(CO[C@H]2CN(Cc3ccco3)[C@H]3COC[C@@H]23)nc1 | -1
CC(C)(C)NC[C@H](O)COc1cccc2[nH]c(C#N)cc12 | 9
O=S(=O)(c1ccc(F)cc1)N1CCCCC1c1cccnc1 (centres undefined) | 52
CCCCCOc1c(OC)ccc2cc(C(=O)NCc3ccc4c(c3)OCO4)c(=O)[nH]c12 | -74*!
Cn1cc(CN2C[C@H]3COC[C@@]3(COc3ccccn3)C2)cn1 | -17
Clc1ccc(C2NCCc3[nH]cnc32)cc1 (centres undefined) | -37
c1cc2c(c(-c3ccc4nc[nH]c4c3)c1)CCNC2 | -7
CCCN1CCO[C@H]2c3cc(O)ccc3OC[C@@H]21 | 25
Cc1cc(C)c(NC(=O)c2cc3cccnc3n(Cc3ccccc3)c2=O)c(C)c1 | -35
COc1ccc(-n2nc(C(F)(F)F)cc2-c2ccc(Cl)cc2)cc1 | -10&22
Cc1cnc(C(=O)N2C[C@H]3CN(Cc4cccnc4)C[C@@H]3C2)cn1 | -5
Ic1cncc(OC[C@@H]2CCN2)c1 | 6&17
Cc1ccc2c(c1)Sc1ccc(C)cc1S2 | 5
CCOc1ccc(NC(=O)c2cc3cccnc3n(Cc3ccc(Cl)cc3)c2=O)cc1 | 67
O=C1[C@H]2CN(Cc3ccccn3)C[C@H]2CN1c1ccsc1 | 6
COCCN1CCN(c2ncccn2)Cc2ccc(C)nc21 | -5
CN1CCN2CCN(C(=O)CCn3ccc(=O)[nH]c3=O)CC2C1 (centres undefined) | 5
O=C(NC1CCCC1)c1cc2cccnc2n(Cc2ccccc2)c1=O | 18

Reprinted from the results shown, 5 compounds:
SMILES | Tg IFNy HTS
Cn1cc(CN2C[C@H]3COC[C@@]3(COc3ccccn3)C2)cn1 | -17
Clc1ccc(C2NCCc3[nH]cnc32)cc1 (centres undefined) | -37
c1cc2c(c(-c3ccc4nc[nH]c4c3)c1)CCNC2 | -7
CCCN1CCO[C@H]2c3cc(O)ccc3OC[C@@H]21 | 25
Cc1cc(C)c(NC(=O)c2cc3cccnc3n(Cc3ccccc3)c2=O)c(C)c1 | -35

Remaining list, next part
SMILES | Tg IFNy HTS
Cc1ccnc(CC(C)N(C)Cc2cccc3cnccc23)c1 (centres undefined) | -25
CCS(=O)(=O)N1CC[C@@]2(CN(C)C[C@H]2COCc2cccnc2)C1 | -2
OC1CCCCC1N1CCC(c2ccccc2)CC1 (centres undefined) | 10&-5
CN1CCO[C@]2(CCC[C@H]2COc2cccnc2)C1 | -17
Cc1nccc2c1[nH]c1ccccc12 | 1
C=C[C@H]1CN2CC[C@H]1C[C@H]2[C@H](O)c1ccnc2ccccc12 | -26&-20
CN1C(=O)CC(c2ccccc2)Nc2ccccc21 (centres undefined) | 24
Cc1ccc(N2CCC[C@@]3(C(=O)O)CN(C(C)C)C[C@H]3C2)nn1 | 172
Cc1cccnc1CC(C)NC1CCN(C(=O)c2ccccc2)CC1 (centres undefined) | 0
CS(=O)(=O)NCC[C@@]12CCO[C@@H]1CCN(Cc1cccnc1)C2 | 6
CN1CCN(Cc2nccs2)Cc2cccnc21 | -12
CN1CC2CN(C(=O)c3csnn3)CCC2(c2ccccc2)C1 (centres undefined) | -31
O=S(=O)(C1CC1)N1CCO[C@H]2CCN(Cc3ccccn3)C[C@H]21 | 0
Cc1nc(CN2CCC3(CC2)C(=O)Nc2ccccc23)cs1 | i
C=CC1CN2CCC1CC2[C@@H](OC(=O)c1ccc(OC)cc1)c1ccnc2ccccc12 (some centres undefined) | 1
CCN1C[C@H]2[C@@H](OC)CCN(C(=O)Cc3ccc(OC)cc3)[C@H]2C1 | 9
C[C@H](CO)N1C[C@H](C)[C@@H](CN(C)C(=O)Oc2cccc3ccccc23)OCc2cnnn2CCCC1=O | 192
Cc1ncc(CN2CC[C@@H]3OCCN(Cc4ccncc4)[C@@H]3C2)[nH]1 | -30
O=C(NCc1ccc(Cl)cc1)c1cc2cccnc2n(Cc2ccccc2F)c1=O | 108
O=C(c1ccco1)N1C[C@@H]2CCCN[C@@H]2C1 | 46
CC(C)N1CC2COCC2(COc2ccc(C#N)cn2)C1 (centres undefined) | -7
COc1nc2ccccc2cc1C1NCCc2nc(N)sc21 (centres undefined) | 2
CN1CCN(C(=O)COc2cc(-c3ccccc3)nc3ccccc23)CC1 | -27
C[C@H](CO)N1C[C@H](C)[C@H](CN(C)C(=O)Oc2ccc3ccccc3c2)OCc2cn(nn2)CCCC1=O | -17
O=C1C2CCN(CC2)C1(CO)CO | 23

Pulled one by one from the entries so far (4):
SMILES | Tg IFNy HTS
C=C[C@H]1CN2CC[C@H]1C[C@H]2[C@H](O)c1ccnc2ccccc12 | -26&-20
CN1CCN(Cc2nccs2)Cc2cccnc21 | -12
CN1CCO[C@]2(CCC[C@H]2COc2cccnc2)C1 | -17
O=C1C2CCN(CC2)C1(CO)CO | 23

Following part:
SMILES | Tg IFNy HTS
Cc1cc(C(=O)N2CC[C@H]3[C@@H]2CCN3C)no1 | 60
FC(F)(F)c1cc(N2C[C@@H]3CCN[C@@H]3C2)ncn1 | 70
COc1ccc2[nH]cc(CCN)c2c1 | 7
COc1ccc(C(=O)c2c(C)n(CCN3CCOCC3)c3cc(I)ccc23)cc1 | 7&-21
CCN1CCC2(COCc3cnc(NCC4CC4)nc32)C1 (centres undefined) | 146
CCCN(C/C=C/I)C1CCc2ccc(O)cc2C1 (centres undefined) | -45
COc1ccc(CNCCc2ccc(Cl)cc2)c(OC)c1OC | 2
O=C(NCCc1ccccc1)c1cc2cccnc2n(Cc2ccccc2)c1=O | 29
CC(C)(N)Cc1ccccc1 | 12&22
Clc1ccc(C23CNCC2C3)cc1Cl (centres undefined) | 15
Cn1ccnc1C(=O)N[C@H]1CN[C@@H]2CCCO[C@@H]12 | -17
O=C(Nc1ccccc1)C12CCNCC1C2 (centres undefined) | 40
CNC(=O)C1CC2CN(Cc3c(C)noc3C)CC1O2 (centres undefined) | -39
COc1ccc2[nH]cc(CCNCc3ccc(Br)cc3)c2c1 | 7
O=C(Nc1ccc(F)cc1)c1cc2cccnc2n(Cc2ccccc2)c1=O | 91
NC(=NCc1ccc(Cl)cc1)SCCCc1cnc[nH]1 | 11
COCCN1CCCC2(CCNC2)C1 (centres undefined) | 2
N#Cc1cccc(CN2C[C@@H]3CN(c4ncccn4)C[C@@H]3C2)c1 | -3
CN1[C@H]2CC[C@@H]1CN(C(=O)NC1CCCC1)CC2 | -6
CCN1C[C@H]2[C@H](OC)CCN(C(=O)c3ncccn3)[C@H]2C1 | 171
CCOC1C2CCC1N(Cc1cccc(C)n1)CCO2 (centres undefined) | -17
C[C@H]1CN([C@@H](C)CO)C(=O)CCCn2cc(nn2)CO[C@H]1CN(C)C(=O)Oc1ccc2ccccc2c1 | i
CC(=O)N1CC(C(=O)O)CN2CCN(Cc3ccncc3)CC2C1 (centres undefined) | -36
CCN1C[C@H]2[C@H](OC)CCN(C(=O)COc3ccccc3OC)[C@H]2C1 | -35
CC(C)(Cc1c[nH]c2ccc(Cl)cc12)NCCOc1ccccc1OCC1CC1 | -81*
O=C(NC1CCCCCCC1)c1cn(CC2CCCO2)cc(C(=O)N2CCc3ccccc3C2)c1=O (centres undefined) | -11
Cc1cc(C(=O)Nc2ccc3c(c2)OCCO3)nn1C(C)(C)C | 278
c1ccc(CN2CCOC3(CCN(c4ncccn4)CC3)C2)cc1 | 1
c1ccc(C(Cn2cnnc2)N2CCOCC2)nc1 (centres undefined) | 9
C[C@H]1CCC[C@H](O)CCCCCc2cc(O)cc(O)c2C(=O)O1 | 6
C(#CCN1CCCC1)CN1CCCC1 | 20
O=C(Nc1ccc(Br)cc1F)c1cc2cccnc2n(Cc2ccc(F)cc2)c1=O | 30
C[C@@H]1CN([C@@H](C)CO)C(=O)CCCn2cc(nn2)CO[C@@H]1CN(C)C(=O)Oc1ccc2ccccc2c1 | 158
CCN1CCN(C)C(=O)C12CCN(c1cc(OC)ncn1)CC2 | 3
COCCN1CCN(C2CCOC2)Cc2cccnc21 (centres undefined) | -13
C1CC2(CCN1)CC(N1CCOCC1)CO2 (centres undefined) | 18
Cc1cccc(C2=NCC(=O)N(CC(=O)N3CCCCCC3)c3sc4c(c32)CCC4)c1 | -31
Cc1cccc(COC2CC3CN(Cc4cccs4)CCN3C2)n1 (centres undefined) | -2
CN1CC2(CCN(CC(=O)NCc3ccccn3)C2)OC1=O (centres undefined) | -3
CC(=O)OC[C@]12CCC(C)=C[C@H]1O[C@@H]1[C@H](O)[C@@H](OC(C)=O)[C@@]2(C)[C@@]12CO2 | -81*
O=C1CNC(=O)N1CC(=O)N1C[C@H](c2ccccc2)[C@@H]2[C@H]1C1CCN2CC1 | -3
COc1ccc(NC(=O)c2cc3cccnc3n(Cc3ccccc3F)c2=O)cc1 | 222
O=C(NCc1ccccc1)[C@H]1C[C@H]2CNC[C@H]1O2 | 30
O=C(NC1CCCCC1)c1cc2cccnc2n(Cc2ccccc2F)c1=O | 81
CO[C@@H]1CCN(Cc2ccoc2)[C@H]2CN(Cc3ccncc3)C[C@@H]12 | -2
CCOC(=O)Cc1csc(NC(=O)c2cc3cccnc3n(Cc3ccccc3)c2=O)n1 | 38
CO[C@H]1CCN(Cc2cc(C)on2)[C@H]2CN(CC3CC3)C[C@@H]12 | -4
CC[C@H]1CN2CCC1C[C@@H]2[C@H](O)c1ccnc2ccc(OC)cc12 (some centres undefined) | -79*
CCN1CC[C@@H]2[C@H]1CCN2Cc1cnn(C)c1 | 0
CCN(CC)CCCC(C)NC(=O)c1cc2cccnc2n(Cc2ccccc2)c1=O (centres undefined) | 41

Continuation:
SMILES | Tg IFNy HTS
CC(C)[N+](C)(CCC(C(N)=O)(c1ccccc1)c1ccccc1)C(C)C | 16&2
Cc1ccc(N2CCC3(CC2)COCCN3CCN(C)C)nn1 | 23
O=C(c1cccc2ccnn12)N1C[C@H]2C[C@@H](C1)c1cccc(=O)n1C2 | 6
CCOCCN1C[C@@H]2[C@H](C1)OC[C@@H]2C(=O)Nc1cccnc1 | -29
CCCn1ncc(C(=O)N(Cc2ccc3c(c2)OCO3)C2CC2)c1C | -16
CN1CCN(CCO)C(=O)C12CCN(Cc1ccncc1)CC2 | -1
O=C(CN1C2CCC1CC(O)(c1ccc(F)cc1)C2)NCc1ccco1 (centres undefined) | -9
CN1CCc2c(CNC(=O)c3nccn3C)cncc2C1 | -6
O=C1NCCN(CC2CC2)C12CCN(Cc1cccnc1)CC2 | -1
CCOc1ccc(CN2C3CCC2Cc2c(nc(C)[nH]c2=O)C3)cc1 (centres undefined) | 3
CCN1CCO[C@@H]2CN(Cc3ccc4ccccc4n3)C[C@H]2C1 | -45

High-throughput results: PubChem BioAssay, Broad Institute
